KCNQ2 block: KCNQ2 potassium channel inhibitors, primary screen, cell-based, CHO-K1, FluxOR thallium flux, B-score (AID 2156); Potassium voltage-gated channel subfamily KQT member 2 (Rattus norvegicus), O88943; 20 min; active compounds read low; only compounds with negative scores are shown here; some inactives read as strong as hits; B-score at 10 µM; 310,000 compounds, 1.1% hits;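 active means fluorescence ratio B-score at most minus 3 library SDs, with starting brightness B-score within 2 library SDs, cut at about -5.5 in these data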
Target sequence (O88943 whole entry, looked up): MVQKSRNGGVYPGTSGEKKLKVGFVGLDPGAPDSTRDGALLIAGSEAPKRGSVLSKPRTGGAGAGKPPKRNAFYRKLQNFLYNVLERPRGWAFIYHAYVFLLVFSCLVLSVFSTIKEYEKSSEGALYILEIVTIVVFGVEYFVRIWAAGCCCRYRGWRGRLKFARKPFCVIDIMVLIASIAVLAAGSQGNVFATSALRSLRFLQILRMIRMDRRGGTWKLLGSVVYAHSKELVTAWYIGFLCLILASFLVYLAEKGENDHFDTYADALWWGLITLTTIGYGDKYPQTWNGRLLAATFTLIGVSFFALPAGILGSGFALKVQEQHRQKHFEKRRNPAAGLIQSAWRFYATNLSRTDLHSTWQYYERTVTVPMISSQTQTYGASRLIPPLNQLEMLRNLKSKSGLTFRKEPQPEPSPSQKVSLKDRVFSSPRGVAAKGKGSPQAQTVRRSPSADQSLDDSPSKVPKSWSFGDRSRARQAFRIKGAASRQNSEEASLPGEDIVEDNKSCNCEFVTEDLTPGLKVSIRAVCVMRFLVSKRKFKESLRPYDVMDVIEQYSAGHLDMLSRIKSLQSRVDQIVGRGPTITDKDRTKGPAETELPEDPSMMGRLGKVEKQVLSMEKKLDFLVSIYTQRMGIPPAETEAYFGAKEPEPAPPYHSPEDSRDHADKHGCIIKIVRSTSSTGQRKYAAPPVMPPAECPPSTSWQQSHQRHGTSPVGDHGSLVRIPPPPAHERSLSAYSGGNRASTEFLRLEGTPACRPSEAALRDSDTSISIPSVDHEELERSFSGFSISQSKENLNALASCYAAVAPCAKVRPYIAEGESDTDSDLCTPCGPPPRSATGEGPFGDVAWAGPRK
KCNQ2 block baseline: also measured in KCNQ2 block; calls as there; B-score; measured here: initial fluorescence intensity artifact check;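 brightness before thallium and not channel activity; 0 = typical well and far values either way flag optical interference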
* = called active by the depositor; i = inactive. These rows are one share of the data, so the mix of outcomes need not match the whole.

SMILES	KCNQ2 block	KCNQ2 block baseline
Fc1ccc(C(c2nnnn2Cc2ccccc2)N2CCSCC2)cc1 (stereo not given)	i	0.19
CC(=O)N1N=C(c2ccc(C(C)(C)C)cc2)OC1(C)C	i	0.54
CCN(CC)C(=O)Cn1c(=O)n(CCCC(=O)NCc2ccccc2)c(=O)c2sccc21	i	1.6
C=CCn1c(N)c(C(=O)OC(C)CC)c2nc3ccccc3nc21 (stereo not given)	i	-3.3
O=S(=O)(c1ccc(N2CCN(CCO)CC2)nc1)N1CCOCC1	i	0.55
COc1ccc(NC(=O)CSc2ncnc3c2sc2ccccc23)c(OC)c1	i	-1.4
CCCCC(=O)O[C@H]1CC[C@H]2[C@@H]3CCc4cc(O)ccc4[C@H]3CC[C@]12C	i	1.6
COc1ccc(C2CC(=O)C3=C(C2)Nc2ccccc2N(C(=O)C2CC2)C3c2cccnc2)cc1OC (stereo not given)	i	1.2
O=C1CCCN1CC1CCCN(Cc2nc(COc3ccccc3)no2)C1 (stereo not given)	i	1.7
CCNc1nc(NCC)nc(N(C#N)CCOc2ccccc2)n1	i	-2.4
CCOc1ccc(-n2c(Cc3cc(=O)[nH]c(=O)[nH]3)nnc2SCC(=O)OC)cc1	i	-2.2
CC(C)(C)Nc1ncnc2c1cnn2-c1ccccc1	i	0.12
CCC(C)c1ccccc1NC(=O)C(C)OC(=O)CN1C(=O)NC(C)(C)C1=O (stereo not given)	i	0.01
CC1=C(C(=O)N2CCCC(CCC(=O)NCc3ccccc3F)C2)OCCO1 (stereo not given)	i	1.9
Cc1ccc(NS(=O)(=O)c2cc(C(=O)O)ccc2Cl)c(C)c1	i	0.4
CC(C)Cc1cc(C(=O)Nc2c(F)cc(F)cc2Br)no1	i	0.79
CC(C(=O)N1CCN(c2ccccc2F)CC1)c1ccc([N+](=O)[O-])cc1 (stereo not given)	i	-2.1
CN(C(=O)CSc1nnc(-c2ccncc2)n1-c1ccccc1)C1CCS(=O)(=O)C1 (stereo not given)	i	-0.17
O=C(Nc1ccc2c(c1)Cc1ccccc1-2)c1cccnc1	i	1.1
S=c1[nH]ccn1-c1cccc(Cl)c1Cl	i	1.8
Cc1ccc(S(=O)(=O)NCC(=O)N2CCOCCOCCOCCOCC2)cc1	i	0.62
CCCCCCn1c(CN2CCCCC2C)nc2c1c(=O)n(C)c(=O)n2C (stereo not given)	i	1.3
N#Cc1cccc(NC(=O)CNC(=O)Cc2ccccc2)c1	i	0.5
Cc1ccccc1Cn1c(=O)[nH]c2ccccc21	i	-0.21
CCOc1ccc(S(=O)(=O)Nc2cccc(Cl)c2)cc1	i	-0.53
Later entries.
SMILES	KCNQ2 block	KCNQ2 block baseline
CCCCOC(=O)CCc1c(C)[nH]c(=O)c(C#N)c1C	i	1.7
O=C(O)c1cc(=O)[nH]c2c(Cl)cccc12	i	0.76
CN(C)c1ccc(-c2noc(-c3ccccc3O)n2)cc1	i	0.83
O=C(Oc1ccccc1C(=O)N1CCOCC1)c1cccc(Br)c1	i	-2
O=C(N/N=C/c1c[nH]c2ccccc12)c1cc(Cl)ccc1O	i	0.98
COc1ccc(Cl)cc1NC(=O)c1cc(C)no1	i	-0.19
CC1(C)N=C(c2ccccn2)C(C)(C)N1O	i	1.5
CC1CCCN(c2oc(-c3cccc4ccccc34)nc2C#N)C1 (stereo not given)	i	1
Cc1ccc([N+](=O)[O-])cc1Nc1nc(N2CCOCC2)nc(N2CCOCC2)n1	i	-1.8
O=C(NCC1CCCCC1)c1cc([N+](=O)[O-])ccc1N1CCOCC1	i	0.03
Cc1ccc(S(=O)(=O)NCc2csc(C)n2)c(C)c1	i	-0.87
COc1ccc2[nH]c(C(=O)Nc3ccccc3Cl)cc2c1	i	4.3
COc1ccc(C)cc1NC(=O)CCNS(=O)(=O)c1ccc2c(c1)CCC(=O)N2	i	1.5
Cc1ccc(N(C(=O)c2sc(C)nc2C)C(C(=O)NCc2ccco2)c2ccccc2)cc1 (stereo not given)	i	-0.74
Cc1ccc(N=Nc2ccc(O)c(/C=N\NC(=O)c3ccc(N)cc3)c2)cc1C	i	-1.3
Cc1ccc(C)c(S(=O)(=O)NCC(c2ccco2)N2CCc3ccccc3C2)c1 (stereo not given)	i	-0.04
NS(=O)(=O)c1ccc(CCNC(=O)c2ccco2)cc1	i	-0.67
COc1ccc(-n2nnnc2-c2cccc(OC)c2)cc1	i	-0.01
Cc1cc(C)cc(NCC(=O)Nc2c(C)cccc2C)c1	i	-0.55
COc1ccc(S(=O)(=O)n2cnc(C)c2)cc1	i	1.3
CC(C)n1nnnc1SCC(=O)NCc1ccc2c(c1)OCO2	i	0.03
CCC(CC)NC(=O)/C=C/c1cccc([N+](=O)[O-])c1	i	0.11
CS/C(=N/S(=O)(=O)c1ccc(C)cc1)c1ccccc1	i	0.89
CSc1cccc(NS(=O)(=O)c2ccc3c(c2)oc(=O)n3C)c1	i	-0.29
CCSc1nnc(NC(=O)C2CCN(S(=O)(=O)c3ccccc3C(F)(F)F)CC2)s1	i	-0.81

Another view of part of the listing above:
structure,KCNQ2 block,KCNQ2 block baseline
CN(C)c1ccc(-c2noc(-c3ccccc3O)n2)cc1,i,0.83
O=C(Oc1ccccc1C(=O)N1CCOCC1)c1cccc(Br)c1,i,-2
O=C(N/N=C/c1c[nH]c2ccccc12)c1cc(Cl)ccc1O,i,0.98
COc1ccc(Cl)cc1NC(=O)c1cc(C)no1,i,-0.19
CC1(C)N=C(c2ccccn2)C(C)(C)N1O,i,1.5
CC1CCCN(c2oc(-c3cccc4ccccc34)nc2C#N)C1 (stereo not given),i,1
Cc1ccc([N+](=O)[O-])cc1Nc1nc(N2CCOCC2)nc(N2CCOCC2)n1,i,-1.8

A second format for 4 compounds above:
C=CCn1c(N)c(C(=O)OC(C)CC)c2nc3ccccc3nc21 (stereo not given)
  KCNQ2 block = i; KCNQ2 block baseline = -3.3

COc1ccc(-n2nnnc2-c2cccc(OC)c2)cc1
  KCNQ2 block = i; KCNQ2 block baseline = -0.01

Cc1ccc(S(=O)(=O)NCc2csc(C)n2)c(C)c1
  KCNQ2 block = i; KCNQ2 block baseline = -0.87

Cc1ccc(N=Nc2ccc(O)c(/C=N\NC(=O)c3ccc(N)cc3)c2)cc1C
  KCNQ2 block = i; KCNQ2 block baseline = -1.3

(next part)
SMILES	KCNQ2 block	KCNQ2 block baseline
O=C1C(Cl)=C(NS(=O)(=O)c2ccc([N+](=O)[O-])cc2)C(=O)c2ccccc21	-6*	-1.9*
COc1cc(/C=C/C(=O)OCC(=O)NC(=O)NC23CC4CC(CC(C4)C2)C3)ccc1OCC#N	i	1.3
O=C(NCc1ccco1)C1CC(c2c(Cl)cccc2Cl)=NO1 (stereo not given)	i	0.11
Cc1ccc(NC(=O)CSc2ccc(-c3ccccn3)nn2)c(C)c1	i	0.16
Cc1ccc(-c2nc(-c3ccncc3)no2)c(Cl)c1	i	-0.82
CCOC(=O)c1nn(-c2cccc(OC)c2)c2nc(CC)c(C#N)c(=O)n12	i	-0.87
CCOc1cc(S(=O)(=O)NCC2OCCc3ccccc32)c(OCC)cc1-n1cnnn1 (stereo not given)	i	0.35
Cc1ccc(NC(=O)N(Cc2cccs2)Cc2cc3cc4c(cc3[nH]c2=O)OCO4)cc1	i	-0.74
CC(Oc1ccc(-n2cnnn2)cc1)C(=O)O (stereo not given)	i	0.12
COc1ccc2nc(C)cc(SCC(=O)NNC(=O)COc3cccc4ccccc34)c2c1	i	-0.62
CCOC(=O)C1=NN(c2ccc(C)cc2)C2(S1)SC(C(C)=O)=C(C)N2c1ccccc1 (stereo not given)	i	-0.33
C[N+]12CCCCC1C(COC(=O)c1ccc3c(c1)OCO3)CCC2 (stereo not given)	i	2.4
COc1cc(Cl)ccc1OCc1cc(C(=O)N2C[C@H]3CC[C@H]2C3)no1	i	-0.76
C#CCNC(=O)C1=C[C@H](C(C)(C)C)C[C@H](OCc2ccc(CO)cc2)O1	i	0.02
O=C(Nc1cccc2ccccc12)C(=O)C1C(=O)Nc2ccccc21 (stereo not given)	i	0.7
Cc1ccc(CC2S/C(=C(/C#N)C(=O)N3CCOCC3)N(c3ccccc3)C2=O)cc1 (stereo not given)	i	-0.22
CCS(=O)(=O)c1ccc2c(c1)N(S(=O)(=O)c1ccccc1)CC(C(=O)O)O2 (stereo not given)	i	0.34
CC1C(=O)N2CCCc3cc(S(=O)(=O)Nc4ccccc4F)cc1c32 (stereo not given)	i	2
C/C(=N\NC(=O)c1ccccc1NC(=O)c1ccc(Cl)cc1)c1ccncc1	i	-0.42
Cc1c(CC(=O)N[C@@H](C)C(=O)O)c(=O)oc2cc3oc4c(c3cc12)CCCC4	i	1.8
CCn1ncc(-c2cc(C(=O)O)no2)c1C	i	0.11
COc1cccc(/C=N/N2CCN(c3ccc(Cl)cc3)CC2)c1OC	i	-0.15
COc1ccc(S(=O)(=O)N2CCC(C(=O)NC3CC3)CC2)cc1	i	1.6
Cc1cc(C)n(-c2nc3ccccc3c(=O)n2OCCOc2ccccc2)n1	-5.6*	-0.24*
c1coc(CNCCCN2CCOCC2)c1	i	0.56
(more compounds)
SMILES	KCNQ2 block	KCNQ2 block baseline
O=C1N/C(=C/c2cccn2-c2ccccc2)C(=O)N1c1cccc(Cl)c1	i	-0.02
Cc1c(Cl)cccc1Nc1nc(NCCO)c2ccccc2n1	i	-1.4
COCCN(C(=O)CCC(=O)Nc1nccs1)C(C(=O)NCCC(C)C)c1ccc(F)cc1 (stereo not given)	i	0.2
CC(=O)Nc1ccc(S(=O)(=O)Oc2ccc(Br)cc2C(=S)N2CCOCC2)cc1	i	-0.57
CC(C)NC(=O)CCn1c(=S)oc2ccccc21	i	-2.6
Cc1ccc(Oc2nsnc2N2CCOCC2)cc1	i	-0.64
COc1ccc2c(c1)CCc1c(C(=O)N3CCCC3)noc1-2	i	0.67
CN(C)S(=O)(=O)N1CCN(C(=O)N(c2ccccc2)c2ccccc2)CC1	i	2.4
C/C(=N\NC(=O)CCn1nnc2ccccc21)c1ccco1	i	-1.1
O=C(NCC1CCCO1)C(c1ccncc1)N(Cc1cccs1)C(=O)CN1C(=O)c2ccccc2S1(=O)=O (stereo not given)	i	0.32
CCn1c(SCC(=O)Nc2ccccc2-c2ccccc2)nnc1-c1ccoc1C	i	2.5
CCOc1ccc(OC(=O)c2ccc3c(=O)n4c(nc3c2)CCC4)cc1	i	1.2
OCCC1CN(Cc2ccc(Oc3ncccn3)cc2)CCN1C1CCCC1 (stereo not given)	i	1.8
O=C(O)CCCC(=O)Nc1nc(-c2ccc(F)cc2)cs1	i	-1.6
Cn1c(=O)oc2cc(S(=O)(=O)NCc3ccccc3)ccc21	i	0.64
C=CCNc1nc(C(=O)OCC(=O)Nc2ccc(S(N)(=O)=O)cc2)cs1	i	0.19
COC(=O)c1cccc(NC(=O)Cn2nnc3ccccc32)c1	i	2.9
CSc1nnc2c(n1)OC=Nc1ccc(Br)cc1-2	i	0.6
COc1ccc(/C=C(\C#N)C(=O)OCC(=O)NC2CC2)cc1	i	-1.6
c1ccc(Cn2c(CN3CCCC3)nc3ccccc32)cc1	i	-1.7
CC(=O)c1c(N2CCN(Cc3ccccc3)CC2)nc(=S)n(-c2ccccc2)c1C	i	-1.2
CSc1ncc2c(n1)-c1cc(C)ccc1SC2	i	2
Cc1nn2c(C(F)(F)F)c3c(nc2c1-c1ccccc1)CCC3	i	-0.46
COc1cc(C(=O)Nc2ccc(S(=O)(=O)NC(C)C)cc2)cc(OC)c1OC	i	0.02
CNC(=O)CN1C(=O)c2ccccc2S1(=O)=O	i	0.41
(listing goes on)
SMILES	KCNQ2 block	KCNQ2 block baseline
CCN(CC)CCN(C(=O)c1ccc(S(=O)(=O)N(C)C2CCCCC2)cc1)c1nc2c(C)cccc2s1	i	0.93
Cc1noc(C)c1CCC(=O)N1CCCC(CCC(=O)NCc2ccc(F)c(F)c2)C1 (stereo not given)	i	1.4
Fc1ccc2c(c1)[C@H]1OCC[C@H]1[C@@H](c1ccco1)N2	i	-2.1
Cc1cccc(C)c1OCc1cc(C(=O)NC2CCC2)no1	i	0.02
COC(=O)c1cc2sccc2n1Cc1nc(-c2ccc(OC)cc2)oc1C	i	-1.3
O=C(COc1ncnc2ccccc12)Nc1cccc(S(=O)(=O)N2CCOCC2)c1	i	-1.6
COc1ccc(C(C)NC(=O)c2ccc([N+](=O)[O-])cc2)cc1OC (stereo not given)	i	0.55
Cc1cccc(NC(=O)C(c2cccc([N+](=O)[O-])c2)N2CCCCC2)c1 (stereo not given)	i	-0.47
CCOC(=O)c1ccc(COc2ccc(C(C)C)cc2)o1	i	-0.04
COc1cccc(NC(=S)/C(=C(\[O-])c2ccc(C)c([N+](=O)[O-])c2)[n+]2ccccc2)c1	i	0.87
O=C(O)c1ccccc1-c1ccccc1C(=O)Nc1cccc(Br)c1	i	1.2
O=C1CCN1C1(C(=O)NC2CCCCC2)CCCC1	i	1.5
O=C(C[n+]1cccc(CO)c1)Nc1nc2ccccc2s1	i	-1.2
CCCCN(CC)C(=O)c1cc2c(=O)[nH]c3ccc(C)cc3c2s1	i	-0.11
O=C(NCCc1csc(-c2cccnc2)n1)c1cccc2ccccc12	i	4.3
COc1ccc(NC(=O)COc2ccc(N(C)S(=O)(=O)c3ccc(Cl)cc3)cc2)cc1OC	i	-0.12
O=C(Cc1cccc(F)c1)N1CCCC(CO)(Cc2ccc(F)cc2F)C1 (stereo not given)	i	1.6
COc1cc2c(cc1OC)C(c1ccccc1)=NCC2	i	-1.4
COC(=O)c1sccc1NC(=O)CSc1ccccc1N	i	1.1
COc1ccc(CCNC(=O)c2c(C)nc3ccccn23)cc1OC	i	-0.73
